CDC25B CDK2 inh: human CDC25B-CDK2/CyclinA binding inhibition | AID 1259370 | z-score (no concentration beside the values) | HTRF CDC25B-CDK2/CyclinA binding, anti-His/anti-Flag; hits give high values | P30305+P24941 | 94,000 compounds, 0.72% hits;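 note: score is relative to mean and SD of negative controls; strong numbers were not always called active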
TAR Tat displ: HIV-1 TAR-Tat binding disruption | HIV-1 TAR RNA, Tat peptide displacement FRET; hits give high values | z-score (no concentration beside the values) | AID 1259389 | 100,000 compounds, 0.6% hits;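 note: score is relative to mean and SD of negative controls; some compounds called inactive have numbers as strong as hits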
* = called active by the depositor; . = not tested or not shown.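 Rule for the calls: active = z-score from 3 up in half or more of its runs; inactive = the rest.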

SMILES,TAR Tat displ,CDC25B CDK2 inh
CC(CCc1ccccc1)NC(=O)C(C)Sc1ccsc1[N+](=O)[O-] (centres undefined),2.1,-2
Brc1ccc2c(c1)c(-c1ccccc1)nc1nncn12,.,0.15
O=C(NCCCN1CCCC1=O)c1nnc(-c2ccc3c(c2)OCO3)o1,0.39,0.1
CC(C)(C)c1ccc(C(=O)Nc2cnc3sc4c(n3c2=O)CCCC4)cc1,-1.1,0.9
CCOC(=O)c1c(NC(C)=O)sc2c(OC)cccc12,.,2
O=c1ccc2ccc(O)c(O)c2o1,2.8,-2.4
CC(=O)O[C@@H]1CC2C(C)(C)[C@H](O)C[C@H](O)[C@]2(C)C2CC[C@@]3(C)[C@H](c4ccoc4)OC(=O)[C@H]4O[C@]43[C@@]21C (some centres undefined),-0.99,.
Cc1noc(C)c1S(=O)(=O)N(Cc1ccccc1)C(C)C,.,-1.2
CC(C)NC(=O)NNC(=O)c1nc(-c2ccccn2)n[nH]1,.,-1.2
Cc1ccc(Cc2cn3cc(-c4ccc(F)cc4)nc3s2)cc1,0.79,-1.8
CC1=C(c2ccc(C(C)C)cc2)S(=O)(=O)N=C1N1CCN(C)CC1,0.29,-0.98
CS(=O)(=N/C=C(\C#N)C(=O)c1ccc(Cl)cc1)c1ccc(Cl)cc1 (centres undefined),.,-2
CN1CCN(c2ncnc3sc(-c4ccccc4)cc23)CC1,.,0.56
S=C(NCCCNC1CCCCC1)Nc1ccc(Cl)cc1,.,-1.6
CC(=O)/C(=C\Nc1cc(C)nc(C)n1)S(=O)(=O)c1ccc(Cl)cc1,.,-0.89

New compounds follow
SMILES,TAR Tat displ,CDC25B CDK2 inh
CC(=O)Oc1cccc(C2OC(c3ccccc3O)=NN2C(C)=O)c1OC(C)=O (centres undefined),2.3,.
CCOc1cc(C2Nc3ccccc3-c3nnc(SC)nc3O2)ccc1O (centres undefined),-0.89,-0.82
CCc1c(CN2CCN(C3CCCCC3)CC2)csc1C,1.9,.
COc1ccc(C2CC(c3ccc(Br)cc3)Nc3nnnn32)cc1OC (centres undefined),3,.
CC[n+]1c(/C=C/N(C)c2ccccc2)sc2cc(NC(C)=O)ccc21,2,-1.8
CC(C)CC1=NN(C(=O)Cc2ccccc2)C(O)(C(F)(F)F)C1 (centres undefined),.,-0.73
CN(C)c1nc(Oc2ccc(=O)[nH]n2)nc(N2CCCC2)n1,-0.28,-2.3
Cc1noc2ncnc(N3CCCC(C(=O)N4CCN(c5ccccn5)CC4)C3)c12 (centres undefined),0.97,.
O=C(NCc1c(-n2cccc2)sc2c1CCCC2)Nc1ccc(Br)cc1F,1.6,-2
CC1Sc2ccc(S(=O)(=O)N3CCC(C(=O)NC4CCCCC4)CC3)cc2NC1=O (centres undefined),-1.5,.
O=C(O)c1cccc(Nc2nc3ccc(Cl)cc3n3cnnc23)c1,1,-1.8
Cc1onc(-c2ccccc2Cl)c1C(=O)N1CCCN2C(=O)c3ccccc3C21 (centres undefined),.,-0.52
CCSc1nc2n(n1)C(c1ccccc1OC)C1=C(CCCC1=O)N2 (centres undefined),-1.1,-2.4
CCOC(=O)C1=C(C)NC2=C(C(=O)CC(C)(C)C2)C1c1ccc(OCc2ccccc2)c(OC)c1 (centres undefined),1,-3
Cn1c(SCc2ccccc2F)nc(=O)c2c1NC(=O)CC2c1cc(F)ccc1F (centres undefined),-0.4,-1

Additional structures follow:
SMILES,TAR Tat displ,CDC25B CDK2 inh
CC1(C)CC(=O)C2=C(C1)N=C1c3ccccc3C(=O)C1C2c1ccc(Cl)cc1 (centres undefined),2.4,-0.99
Cc1ccc(C(=O)OCc2cc(=O)n3cc(C)sc3n2)cc1,1.2,.
CCCC(=O)OC1=C(C(=O)OC)N(CC)S(=O)(=O)c2ccccc21,0.36,-1.3
O=c1[nH]nc2c3scc(-c4ccc(F)cc4)c3ncn12,1.6,0.53
CC1CCCC(C)N1C(=O)c1cc2nc(-c3cccs3)cc(C(F)(F)F)n2n1 (centres undefined),0.34,-2
CN(CC(=O)NCc1cccs1)S(=O)(=O)c1ccc2[nH]c(=O)ccc2c1,-0.25,.
CCCOc1ccc(-c2cccc(NS(=O)(=O)c3cc(F)ccc3F)c2)nn1,0.14,.
Cc1ccc(C)c(S(=O)(=O)Nc2cc(N3CCCS3(=O)=O)ccc2C)c1,0.6,.
CC(Cc1c[nH]c2ccccc12)N1C(=O)CCC1=O (centres undefined),-0.73,0.43
COc1cccc(CC(=O)NC2CCN(c3ncc(C(F)(F)F)cc3Cl)CC2)c1,.,-1.9
O=S(=O)(CCSCc1csc2ccccc12)c1ccc(Cl)cc1Cl,.,-1.5
CCOC(=O)C1=C(C)Nc2nc(C)nn2C1c1cc(OC)ccc1OC (centres undefined),-0.4,-1.3
CCOC(=O)CSc1nnc(-c2ccccc2)c(=O)n1-c1ccccc1,.,-0.84
Cc1noc2ncnc(NCc3ccc(Cl)cc3)c12,0.49,.
c1ccc(Cc2cn3cc(-c4ccccc4)nc3s2)cc1,1.9,-1.5

Additional compounds
SMILES,TAR Tat displ,CDC25B CDK2 inh
CN(C)/C=C/C(=O)c1ccc(C#Cc2ccccc2)cc1,.,-0.43
Cc1cc(-c2ccc(S(=O)(=O)Nc3ccc(C(C)C)cc3)s2)on1,1.1,.
CC(C)OCCCNC(=O)c1cc(S(=O)(=O)N2CCOCC2)cn1C,1.3,.
O=C1CC2(CCCCC2)CC(=O)N1c1cccnc1,.,-1.8
Cc1c(C(=O)N(Cc2ccccc2Cl)C2CCS(=O)(=O)C2)oc2ccccc12 (centres undefined),0.06,-0.46
O=C(CSc1cn(CC(=O)N2CCCCC2)c2ccccc12)N1CCOCC1,0.94,.
O=S(=O)(c1cccc2nsnc12)N1CCCN(Cc2noc3ccccc23)CC1,0.61,.
Cc1ccc(OCCCCn2ccnc2)cc1,.,-1.6
c1ccc(Nc2c(-c3ccc(N4CCOCC4)cc3)nc3ccccn23)cc1,.,-0.21
CC1CCCN(S(=O)(=O)c2ccc3c4c2CC(=O)N4CC(C)S3)C1 (centres undefined),0.7,.
CCC1=Nc2cc(C(=O)NC)ccc2Sc2ccc(C)cc21,-1.2,-2.3
O=C1c2oc3ccccc3c(=O)c2C(c2ccc(O)cc2)N1c1nncs1 (centres undefined),2.3,-0.76
Cc1cc(O)cc2c1C(=O)CC(C)(C)O2,.,-1.7
COCCNC1CC(=O)N(c2ccccc2)C1=O (centres undefined),-1.9,-0.82
CCOCCCN(Cc1ccco1)C(=O)c1cc2c(=O)oc3ccc(C)cc3c2s1,.,-1.7

Next section
SMILES,TAR Tat displ,CDC25B CDK2 inh
COc1ccc(-c2nc(-c3ccccn3)no2)cc1,.,0.86
O=C(NCc1ccc2c(c1)OCO2)c1ccc2c(c1)nc1n2CCCC1,0.36,.
O=[N+]([O-])c1ccc(Oc2c(Cl)cccc2Cl)cc1,.,-0.18
Cc1cc(C)c(C#N)c(SCC(=O)Nc2c(C#N)cnn2-c2ccccc2)n1,.,-1.5
COc1ccc(-n2cnc3c(C)nc(-n4nc(C)cc4C)nc32)cc1,0.55,1.6
Cc1ccc2[nH]c3c(=O)n(CCN4CCCCC4C)cnc3c2c1 (centres undefined),1,-1.3
O=C(O)CCCCCn1c(SCc2cc(=O)n3ccccc3n2)nc2ccsc2c1=O,.,-1.4
CCOc1ccccc1-c1nn2c(-c3ccccc3Cl)nnc2s1,1.5,-0.45
CCOC(=O)C1=C(C)Nc2nc(SCC(C)C)[nH]c(=O)c2C1c1ccc(Cl)cc1 (centres undefined),-0.7,-0.36
CCc1nc2nc(C)cc(N3CCN(c4ccccc4)CC3)n2n1,2.2,-2.1
O=C(CSc1nc2ccccc2o1)c1ccc(Cl)cc1,0.15,-1.2
Cc1ccc(C(=O)c2ccc(C)cc2)cc1,.,-2
CCC(C)N1C(=O)C2C(C(=O)Nc3cccc(Cl)c3)C3C=CC2(O3)C1C(=O)NC1CCCCC1 (centres undefined),-0.34,-0.1
Clc1ccc2c(c1)-n1cc(-c3ccccc3)nc1CO2,0.89,0.21
CCc1c(CN2CCN(c3ccccn3)CC2)csc1C,1.7,.

(further entries)
SMILES,TAR Tat displ,CDC25B CDK2 inh
CC(C)C(=O)Oc1cc(-c2ccccc2)c2oc(=O)sc2c1,2,-0.84
CN(CC1COc2ccccc2O1)C(=O)C1CCN(c2ccc(-c3cccs3)nn2)CC1 (centres undefined),0.56,.
CCOc1ccccc1C1CC(c2c(O)n(C)c(=O)[nH]c2=O)=Nc2ccccc2S1 (centres undefined),-0.14,-1.8
O=C(NCC1CCCO1)c1ccc(CS(=O)c2ccc(Br)cc2)o1 (centres undefined),2.1,-1.8
CC(C)OC(=O)C1C2C=CC3(CN(C(c4ccccc4)c4ccccc4)C(=O)C13)O2 (centres undefined),0.63,-1.4
CCOC(=O)c1ccc(N2C(=O)c3n[nH]c(-c4cccs4)c3C2c2cccnc2)cc1 (centres undefined),1.1,.
Cc1cc2c(=O)[nH]nc(N)c2c(Sc2ccc(Cl)cc2)n1,.,-2.7
CSc1cccc(NS(=O)(=O)c2cc(-c3cc(C)[nH]n3)ccc2C)c1,0.99,.
Cc1cc(C(F)(F)F)n2nc(C)c(C#N)c2n1,0.76,-0.34
O=C(O)C1C2C=CC(O2)C1C(=O)Nc1ccc([N+](=O)[O-])cc1 (centres undefined),.,-1.1
C=CCn1c2ccccc2n2cc(-c3ccc4c(c3)OCO4)nc12,2.6,-3.1
CCOC(=O)C1=C(C)NC2=C(C(=O)CC(C)(C)C2)C1c1cc(Cl)ccc1F (centres undefined),-1.2,.
O=C(NCc1ccco1)c1ccc2c(c1)sc1nc(-c3ccc(F)cc3)cn12,1.3,.
CC(C)(C)c1ccc(S(=O)(=O)Nc2noc3ccccc23)cc1,1.3,1.6
Cc1ccc2c(c1)NC(C1=NS(=O)(=O)c3ccc(C)cc3N1)=NS2(=O)=O,1,-1.3

The list continues.
SMILES,TAR Tat displ,CDC25B CDK2 inh
Fc1ccc2c(c1)Cc1c([nH]c(-c3ccccc3)nc1=S)O2,0.9,-1.8
c1cnc2nc(SCc3cn4ccccc4n3)[nH]c2c1,0.77,.
CCOC(=O)N1CCc2c(sc3c2C(=O)NC(c2ccc(C(=O)OC)cc2)N3)C1 (centres undefined),3.2,1.6
COCCNC(=O)N1CCc2cc(S(=O)(=O)Nc3ccc(Cl)cc3)ccc21,0.37,.
O=C(NCc1ccc2c(c1)OCO2)c1nc(SCc2ccc(F)cc2)ncc1Cl,1.7,-0.83
N=c1ncn(Cc2ccccc2)c2nc(SCCO)[nH]c12,.,-1.3
O=C(CCC(=O)N1c2ccccc2NC2=C(C(=O)CCC2)C1c1ccco1)NC1CCCC1 (centres undefined),2.2,.
Cn1c(SSc2c(-c3ccccc3)c3ccccc3n2C)c(-c2ccccc2)c2ccccc21,.,-3.5
Cc1cc(C)cc(NC(=O)CCc2c(C)nc3nc(C)nn3c2C)c1,.,-1.4
CCC(Oc1ccc2c3c(c(=O)oc2c1)CCC3)C(=O)OC (centres undefined),.,-1.1
Cc1cc(C)cc(N(CC(=O)NCc2cccs2)S(=O)(=O)c2c(C)[nH]c(=O)[nH]c2=O)c1,.,-0.08
CSc1cccc(NC(=O)N2CCCN(c3nc4cc(F)ccc4n4cccc34)CC2)c1,0.75,.
C/C(NNc1ccccc1)=C(/C#N)C(N)=S,.,-0.44
CCOC(=O)c1sc(SC)c2c1CCc1cnc(SC)nc1-2,.,-2.6
Cn1c(=O)c2sccc2n2c(CCCC(=O)NCCc3c[nH]c4ccccc34)nnc12,-0.87,.

Given with two lines to a compound: entries from further up
The line under a structure holds: TAR Tat displ, CDC25B CDK2 inh
> CC(C)NC(=O)NNC(=O)c1nc(-c2ccccn2)n[nH]1
 : ., -1.2
> Cc1ccc(Cc2cn3cc(-c4ccc(F)cc4)nc3s2)cc1
 : 0.79, -1.8
> CC1=C(c2ccc(C(C)C)cc2)S(=O)(=O)N=C1N1CCN(C)CC1
 : 0.29, -0.98
> CS(=O)(=N/C=C(\C#N)C(=O)c1ccc(Cl)cc1)c1ccc(Cl)cc1 (centres undefined)
 : ., -2
> CN1CCN(c2ncnc3sc(-c4ccccc4)cc23)CC1
 : ., 0.56

An excerpt from above in order of SMILES length, lowest first.
SMILES,TAR Tat displ,CDC25B CDK2 inh
C/C(NNc1ccccc1)=C(/C#N)C(N)=S,.,-0.44
COCCNC(=O)N1CCc2cc(S(=O)(=O)Nc3ccc(Cl)cc3)ccc21,0.37,.
Cc1cc(C)cc(N(CC(=O)NCc2cccs2)S(=O)(=O)c2c(C)[nH]c(=O)[nH]c2=O)c1,.,-0.08

The list goes on.
SMILES,TAR Tat displ,CDC25B CDK2 inh
O=C(Nc1nnc2n1CCS2)c1cccc(Br)c1,1.1,.
CCOc1ccccc1-c1nn2c(C(F)(F)F)nnc2s1,-0.69,-0.93
Cc1ccc(-n2c(C)c(C)c3c2ncn2nc(-c4cccnc4)nc32)cc1,1.2,-2
O=S(=O)(c1ccc(-c2cc(C(F)(F)F)on2)s1)N1CCN(c2ccc(F)cc2)CC1,1,.
CC(C)(C)c1ccc(S(=O)(=O)N2CCC(c3ccncc3)CC2)cc1,0.59,.
CN(C)c1ccc(C(CNS(=O)(=O)c2ccc3c(c2)OCCO3)N2CCc3ccccc32)cc1 (centres undefined),-0.28,.
Fc1cccc(/C=C/c2nn3c(-c4ccncc4)nnc3s2)c1,-1.3,-0.97
Cc1ccc(C(=O)COC(=O)c2ccc3nc4c(nc3c2)-c2cccc3cccc-4c23)cc1[N+](=O)[O-],.,-3
Clc1ccccc1CNc1nc2ccccc2n1CCN1CCCCC1,-0.35,-0.19
Cc1nc(N2CCCC2)ncc1S(=O)(=O)c1ccc(Cl)cc1,.,-1.2
